c-Myc SMM: binders of human c-Myc | P01106 | small molecule microarray, His-c-Myc binding, anti-His fluorescence | calls only | 17,000 tested, 1.5% active | AID 624141;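 active = spot fluorescence over background with P-value below 7% in all four replicate spots, showing protein binding; compounds were printed on slides so no solution concentration is given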;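 note: score is binary with 100 for all four spots passing and 0 otherwise; about 2 pmol printed per array spot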
Target sequence (P01106 whole entry, looked up): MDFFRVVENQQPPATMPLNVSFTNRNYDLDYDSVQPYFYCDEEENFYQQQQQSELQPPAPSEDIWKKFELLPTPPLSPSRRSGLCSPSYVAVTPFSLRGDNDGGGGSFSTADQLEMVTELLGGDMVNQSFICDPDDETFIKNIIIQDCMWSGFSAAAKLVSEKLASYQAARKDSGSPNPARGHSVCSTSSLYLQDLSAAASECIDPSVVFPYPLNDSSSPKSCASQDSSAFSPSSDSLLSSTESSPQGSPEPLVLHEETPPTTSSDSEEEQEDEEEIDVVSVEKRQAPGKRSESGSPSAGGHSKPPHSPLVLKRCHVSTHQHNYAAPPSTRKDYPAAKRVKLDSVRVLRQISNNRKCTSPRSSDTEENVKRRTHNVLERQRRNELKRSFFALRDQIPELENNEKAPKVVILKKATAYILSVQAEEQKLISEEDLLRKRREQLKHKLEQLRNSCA
STAT3 binder: binds human STAT3 on microarray; Small molecule microarray, His-STAT3 binding, anti-His fluorescence; calls only; 17,000 tested, 0.2% active; AID 624138;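 active = compounds whose four printed spots each show fluorescence over background unusually high for their array block, chance value under 7%; compounds were printed on slides so no solution concentration is given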;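 note: about 2 pmol printed per array spot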
ID4 binder: binders of human ID4 protein; calls only; P47928; small molecule microarray, Flag-ID4 binding, fluorescence F/B; 31,000 tested, 1.2% active;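 active = spot signal over background at p below 0.07 in all four prints; compounds were printed on slides so no solution concentration is given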;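 note: a binder raises fluorescence above local background on the spot; about 2 pmol printed per array spot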
Target sequence (P47928 whole entry, looked up): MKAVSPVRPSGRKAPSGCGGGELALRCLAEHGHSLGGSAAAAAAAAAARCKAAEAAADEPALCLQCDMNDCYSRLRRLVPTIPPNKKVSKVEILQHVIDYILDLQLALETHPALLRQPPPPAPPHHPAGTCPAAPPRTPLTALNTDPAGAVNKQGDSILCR
p53 mut binder: mutant p53 (human) binding | small molecule microarray binding, anti-GST fluorescence | calls only | 17,000 tested, 0.4% active | AID 624136;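 active = compounds whose four printed spots each glow above background more than chance allows, each with a p-value under 7%; compounds were printed on slides so no solution concentration is given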;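 note: about 2 pmol printed per array spot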
Calls only; i = inactive; / = no result given; + = active, no number. Not all compounds are listed (hit frequency here may not be typical).

SMILES | c-Myc SMM | ID4 binder | p53 mut binder | STAT3 binder
C[C@@H]1CN([C@H](C)CO)C(=O)c2cccc(NC(=O)C3CCCCC3)c2O[C@H]1CN(C)CC1CC1 | i | i | i | i
COC(=O)C1=CO[C@@H](O[C@@H]2O[C@H](CO)[C@@H](O)[C@H](O)[C@H]2O)[C@H]2[C@@H]1C=CC21C=C([C@H](C)O)C(=O)O1 (stereo partly specified) | i | i | i | i
C[C@@H]1CN([C@@H](C)CO)C(=O)Cc2cc(N(C)C)ccc2O[C@H]1CN(C)C(=O)Nc1cccc2ccccc12 | i | i | i | i
Cc1[nH]c2ccccc2c1/C=C/c1nc2ccccc2c(=O)n1CCCO | i | i | i | i
C[C@H]1CN([C@@H](C)CO)C(=O)c2cc(NS(=O)(=O)c3cn(C)cn3)ccc2O[C@H]1CN(C)C(=O)Nc1ccc2c(c1)OCO2 | i | i | i | i
CC(=O)OC[C@@]12C(=O)C[C@@H](C)[C@]3(C[C@@H](c4ccoc4)OC3=O)[C@H]1CC[C@H](O)[C@]21CO1 | i | i | i | i
C[C@H](CO)N1C[C@H](C)[C@H](CN(C)Cc2ccccc2)OCCCC[C@H](C)Oc2ccc(NC(=O)Nc3ccc4c(c3)OCO4)cc2C1=O | i | i | i | i
C=CCNC(=O)[C@H]1[C@@H]2C(=O)O[C@@H](c3ccccc3)[C@@H](c3ccccc3)N2[C@@H](c2ccccc2OCCO)[C@]12C(=O)Nc1ccccc12 | i | i | i | i
CNC[C@H]1OCCCC[C@H](C)Oc2ccc(NC(=O)c3ccncc3)cc2C(=O)N([C@H](C)CO)C[C@@H]1C | i | i | i | i
C[C@@H]1CN([C@@H](C)CO)C(=O)CCCn2cc(nn2)CO[C@H]1CN(C)C(=O)Nc1ccc(N2CCCCC2)cc1 | i | i | i | i
O=C(NCc1ccccc1)C1=C[C@H](C2CC2)C[C@H](OCc2ccc(CO)cc2)O1 | i | i | i | i
C[C@H]1CN([C@@H](C)CO)C(=O)c2cccc(NS(=O)(=O)c3ccc(Cl)cc3)c2O[C@@H]1CN(C)S(=O)(=O)c1cccs1 | i | i | i | i
COc1ccc(CCNC(=O)C2OCCc3ccccc32)cc1OC (stereo unspecified) | i | + | i | i
C[C@H]1CN([C@@H](C)CO)C(=O)Cc2cc(NC(=O)Cc3ccccc3)ccc2O[C@@H]1CN(C)S(=O)(=O)c1cccs1 | i | i | i | i
COC(=O)CNC(=O)c1cc2nc(-c3ccc(C)c(C)c3)cc(C(F)(F)F)n2n1 | i | i | i | i
CC(C)NC(=O)Nc1cccc2c1O[C@@H](CN(C)Cc1ccc(Oc3ccccc3)cc1)[C@@H](C)CN([C@H](C)CO)C2=O | i | i | i | i
C[C@@H]1CN([C@H](C)CO)C(=O)c2cc(NC(=O)Nc3ccc4c(c3)OCO4)ccc2O[C@@H](C)CCCCO[C@H]1CN(C)C(=O)c1ccccc1 | i | i | i | i
C[C@@H]1CN([C@@H](C)CO)C(=O)c2cccc(NS(=O)(=O)c3ccccc3)c2O[C@@H]1CN(C)S(=O)(=O)c1ccc(Cl)cc1 | i | / | i | i
CCOC(=O)C1=CC2(CC)CCCN3CCc4c(n1c1ccccc41)C32 (stereo unspecified) | i | / | i | i
CC(=O)Nc1ccc(NC(=O)CN(c2ccc(I)cc2)S(C)(=O)=O)cc1 | i | i | i | i
COCCNC(=O)c1ccccc1NC(=O)c1cccc([N+](=O)[O-])c1C | i | i | i | i
Cc1noc(C)c1S(=O)(=O)N(C)C[C@H]1Oc2ccc(NS(=O)(=O)c3cccs3)cc2C(=O)N([C@@H](C)CO)C[C@H]1C | i | i | i | i
COc1ccc(CN(C)C[C@H]2OCCCC[C@@H](C)Oc3ccc(NC(=O)Nc4c(C)noc4C)cc3C(=O)N([C@H](C)CO)C[C@H]2C)cc1 | i | i | i | i
C[C@@H]1CN([C@@H](C)CO)C(=O)Cc2cc(NC(=O)Cc3ccccc3)ccc2O[C@H]1CN(C)C(=O)NC1CCCCC1 | i | i | i | i
Cc1noc(C)c1NC(=O)N(C)C[C@H]1OCCCC[C@@H](C)Oc2ccc(NC(=O)CCC(F)(F)F)cc2C(=O)N([C@@H](C)CO)C[C@H]1C | i | i | i | i
C[C@H]1CN([C@@H](C)CO)C(=O)c2cccc(NC(=O)Nc3ccc(C(F)(F)F)cc3)c2O[C@H]1CN(C)C(=O)Nc1ccc2c(c1)OCO2 | i | / | i | i
CCCCn1nnnc1NCc1cccnc1 | i | i | i | i
C[C@@H]1O[C@@H](Oc2c(-c3ccc(O)c(O)c3)oc3cc(O)cc(O)c3c2=O)[C@H](O)[C@H](O)[C@H]1O | i | / | i | i
C[C@H](CO)N1C[C@H](C)[C@@H](CN(C)Cc2ccc(Cl)c(Cl)c2)Oc2c(NS(=O)(=O)c3cn(C)cn3)cccc2C1=O | i | i | i | i
CNC[C@H]1OCCCC[C@@H](C)Oc2ccc(N)cc2C(=O)N([C@H](C)CO)C[C@@H]1C | i | i | i | i
C/C=C/C1C2OC3=C(C(=O)OC3(C)O)C(=O)C1(C)C1CC(O)C(C)CC1C2O (stereo unspecified) | i | i | i | i
CCOc1ccccc1NC(=O)CSc1nc2sc(C)c(C)c2c(=O)n1-c1ccccc1 | i | i | i | i
C[C@H](CO)N1C[C@H](C)[C@@H](CN(C)Cc2ccc(Cl)c(Cl)c2)Oc2ccc(NC(=O)C3CC3)cc2CC1=O | i | i | i | i
CCOc1ccc2nc(NS(=O)(=O)c3ccc(C)c([N+](=O)[O-])c3)sc2c1 | i | i | i | i
C[C@@H]1CCCCO[C@H](CN(C)Cc2ccncc2)[C@H](C)CN([C@@H](C)CO)C(=O)c2cc(N(C)C)ccc2O1 | i | i | i | i
COc1ccc(S(=O)(=O)N(C)C[C@@H]2Oc3c(NC(=O)C4CC4)cccc3C(=O)N([C@@H](C)CO)C[C@@H]2C)cc1 | i | i | i | i
C[C@H](CO)N1C[C@H](C)[C@@H](CN(C)Cc2ccncc2)Oc2ccc(NC(=O)Nc3ccc(C(F)(F)F)cc3)cc2CC1=O | i | i | i | i
Cc1noc(C)c1NC(=O)Nc1ccc2c(c1)C(=O)N([C@@H](C)CO)C[C@H](C)[C@@H](CN(C)C(=O)Nc1c(C)noc1C)OCCCC[C@H](C)O2 | i | i | i | i
C[C@@H]1CN([C@H](C)CO)C(=O)CCCn2cc(nn2)CO[C@H]1CN(C)C(=O)Nc1ccc(-c2cccs2)cc1 | i | i | i | i
CCOC(=O)c1cc(COc2ccc3oc4ccccc4c3c2)c(C)o1 | i | i | i | i
CC(C)NC(=O)Nc1ccc2c(c1)C(=O)N([C@H](C)CO)C[C@H](C)[C@H](CN(C)CC1CC1)O2 | i | i | i | i
c1ccc(-c2nn3c(C4COc5ccccc5O4)nnc3s2)cc1 (stereo unspecified) | i | i | i | i
Cc1ccnc(SCc2cccc(C(=O)O)c2)n1 | i | i | i | i
COc1ccc(C(=O)CSc2nnc(CC(C)O)n2C)cc1 (stereo unspecified) | i | i | i | i
Cc1noc(C)c1NC(=O)N(C)C[C@H]1Oc2c(NC(=O)NC3CCCCC3)cccc2C(=O)N([C@@H](C)CO)C[C@@H]1C | i | i | i | i
C[C@@H]1CCCCO[C@H](CN(C)S(=O)(=O)c2cccs2)[C@@H](C)CN([C@@H](C)CO)C(=O)c2cc(N(C)C)ccc2O1 | i | i | i | i
CC(=O)O[C@@](C)(C(=O)/C=C/C(C)(C)O)[C@H]1[C@H](O)C[C@@]2(C)[C@@H]3CC=C4[C@@H](C=C(O[C@@H]5O[C@H](CO)[C@@H](O)[C@H](O)[C@H]5O[C@@H]5O[C@@H](C)[C@H](O)[C@@H](O)[C@H]5O)C(=O)C4(C)C)[C@]3(C)C(=O)C[C@]12C | i | / | i | i
Cc1ccc(OC(=O)N(C)C[C@@H]2OCc3cn(nn3)CCCC(=O)N([C@H](C)CO)C[C@H]2C)cc1 | i | i | i | i
COc1ccc(CN(C)C[C@H]2Oc3c(NS(C)(=O)=O)cccc3C(=O)N([C@@H](C)CO)C[C@@H]2C)cc1 | i | i | i | i
Cc1noc(C)c1NC(=O)Nc1cccc2c1O[C@H](CN(C)C(=O)Nc1c(C)noc1C)[C@@H](C)CN([C@H](C)CO)C2=O | i | i | i | i
Cc1nnc(SCc2ccc(C(=O)c3ccc(Cl)cc3)o2)n1-c1ccccc1 | i | i | i | i
CNC[C@@H]1OCCCC[C@@H](C)Oc2ccc(NS(=O)(=O)c3cccs3)cc2C(=O)N([C@H](C)CO)C[C@@H]1C | i | i | i | i
Cc1c(O)cc2c(c1O)C(=O)CC(c1ccccc1)O2 (stereo unspecified) | i | i | i | i
COc1ccc(C2C3=C(CC(C)(C)CC3=O)Nc3ccccc3N2C(C)=O)cc1COc1ccc(F)cc1 (stereo unspecified) | i | i | i | i
COc1ccc(C2=NN(C(=O)CCC(=O)O)C(c3cccs3)C2)cc1 (stereo unspecified) | i | i | i | i
COc1ccc(CN(C)C[C@@H]2Oc3ccc(NC(=O)Cc4ccccc4)cc3CC(=O)N([C@H](C)CO)C[C@H]2C)cc1 | i | i | i | i
CCN1CCN(S(=O)(=O)c2cc(OCC(N)=O)c(C)cc2Cl)CC1 | i | i | i | i
C[C@@H]1CN([C@@H](C)CO)C(=O)c2cc(NS(C)(=O)=O)ccc2O[C@@H](C)CCCCO[C@H]1CN(C)Cc1ccccc1 | i | i | i | i
Cc1noc(C)c1NC(=O)N(C)C[C@@H]1Oc2ccc(NS(C)(=O)=O)cc2CC(=O)N([C@H](C)CO)C[C@@H]1C | i | i | i | i
C[C@H]1CN([C@@H](C)CO)C(=O)CCCn2cc(nn2)CO[C@H]1CN(C)S(=O)(=O)c1cn(C)cn1 | i | i | i | i

Next part, overlapping the part above by 4 compounds.
SMILES | c-Myc SMM | ID4 binder | p53 mut binder | STAT3 binder
CCN1CCN(S(=O)(=O)c2cc(OCC(N)=O)c(C)cc2Cl)CC1 | i | i | i | i
C[C@@H]1CN([C@@H](C)CO)C(=O)c2cc(NS(C)(=O)=O)ccc2O[C@@H](C)CCCCO[C@H]1CN(C)Cc1ccccc1 | i | i | i | i
Cc1noc(C)c1NC(=O)N(C)C[C@@H]1Oc2ccc(NS(C)(=O)=O)cc2CC(=O)N([C@H](C)CO)C[C@@H]1C | i | i | i | i
C[C@H]1CN([C@@H](C)CO)C(=O)CCCn2cc(nn2)CO[C@H]1CN(C)S(=O)(=O)c1cn(C)cn1 | i | i | i | i
Cc1noc(C)c1NC(=O)Nc1cccc2c1O[C@@H](CN(C)Cc1ccc(C(=O)O)cc1)[C@H](C)CN([C@H](C)CO)C2=O | i | i | i | i
C[C@@H]1CCCCO[C@H](CN(C)C(=O)Nc2ccccc2)[C@@H](C)CN([C@@H](C)CO)C(=O)c2cc(N(C)C)ccc2O1 | i | i | i | i
O=[N+]([O-])c1ccc(C(O)CC(O)CSc2nc(-c3ccccc3)c(-c3ccccc3)o2)cc1 (stereo unspecified) | i | i | i | i
COc1ccc(/C=C/C(=O)c2c(OC)cc(OC)c(CC=C(C)C)c2OC)cc1 | i | / | i | i
COc1ccc(S(=O)(=O)Nc2ccc3c(c2)C(=O)N([C@@H](C)CO)C[C@H](C)[C@@H](CN(C)S(=O)(=O)c2cccs2)O3)cc1 | i | i | i | i
Cc1cc2nc(-c3cccc(NC(=O)COc4ccccc4C)c3C)oc2cc1C | i | i | i | i
CCNc1nc(SCCOc2ccccc2)nc(N(C)C)n1 | i | i | i | i
C[C@@H]1CCCCO[C@@H](CN(C)C(=O)CCCN(C)C)[C@@H](C)CN([C@H](C)CO)C(=O)c2cc(NC(=O)CCCN(C)C)ccc2O1 | i | i | i | i
O=C(C1=C[C@@H](c2csc3ccccc23)C[C@@H](OCc2ccc(CO)cc2)O1)N1CCOCC1 | i | / | i | i
C[C@H]1CN([C@@H](C)CO)C(=O)c2cc(NC(=O)Nc3ccc4c(c3)OCO4)ccc2O[C@H]1CN(C)C(=O)Nc1ccc(F)cc1 | i | i | i | i
Cc1ccc(-n2c(=O)c3c4c(sc3n3c(SCC(=O)c5ccc(F)cc5)nnc23)CCCC4)cc1 | i | i | i | i
Cc1nnc(SCC(=O)Nc2ccccc2C(C)C)s1 | i | i | i | i
C[C@@H]1CN([C@H](C)CO)C(=O)Cc2cc(NC(=O)Cn3cnnn3)ccc2O[C@@H]1CN(C)C | i | i | i | i
CC1CCc2c(sc3nc(SC(C)C(=O)Nc4ccccc4)nc(N)c23)C1 (stereo unspecified) | i | i | i | i
C[C@H](CO)N1C[C@H](C)[C@H](CN(C)S(=O)(=O)c2cn(C)cn2)OCCCC[C@H](C)Oc2ccc(NC(=O)c3ccccc3)cc2C1=O | i | i | i | i
COc1cc2c(cc1O)CCC1C2CCC2(C)C(O)CCC12 (stereo unspecified) | i | i | i | i
CNC[C@@H]1Oc2c(NS(=O)(=O)c3ccc(OC)cc3)cccc2C(=O)N([C@H](C)CO)C[C@H]1C | i | i | i | i
C[C@H]1CN([C@@H](C)CO)C(=O)c2cc(N(C)C)ccc2O[C@@H]1CN(C)S(=O)(=O)c1ccccc1 | i | i | i | i

Assay outcomes deposited in PubChem BioAssay by Broad Institute.
